# KCNQ2 enhance: KCNQ2 (rat) channel potentiation. CHO-K1 KCNQ2, FluxOR thallium flux fluorescence; stronger effect = higher value. B-score at 10 µM. 310,000 compounds, 0.54% hits. AID 2239;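 active = fluorescence ratio B-score at least 3 SD of library B-scores, with initial fluorescence B-score within 3 SD, cut at about 5.3 in these data; same plate scores as AID 2156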;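 also: B-score of peak minus minimum over baseline fluorescence ratio after K+ and Tl+ stimulus; positive B-score means potentiation of KCNQ2 with more thallium influx and brighter signal; only the inactives scoring about 0 or higher are listed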
# Target sequence (O88943 whole entry, looked up): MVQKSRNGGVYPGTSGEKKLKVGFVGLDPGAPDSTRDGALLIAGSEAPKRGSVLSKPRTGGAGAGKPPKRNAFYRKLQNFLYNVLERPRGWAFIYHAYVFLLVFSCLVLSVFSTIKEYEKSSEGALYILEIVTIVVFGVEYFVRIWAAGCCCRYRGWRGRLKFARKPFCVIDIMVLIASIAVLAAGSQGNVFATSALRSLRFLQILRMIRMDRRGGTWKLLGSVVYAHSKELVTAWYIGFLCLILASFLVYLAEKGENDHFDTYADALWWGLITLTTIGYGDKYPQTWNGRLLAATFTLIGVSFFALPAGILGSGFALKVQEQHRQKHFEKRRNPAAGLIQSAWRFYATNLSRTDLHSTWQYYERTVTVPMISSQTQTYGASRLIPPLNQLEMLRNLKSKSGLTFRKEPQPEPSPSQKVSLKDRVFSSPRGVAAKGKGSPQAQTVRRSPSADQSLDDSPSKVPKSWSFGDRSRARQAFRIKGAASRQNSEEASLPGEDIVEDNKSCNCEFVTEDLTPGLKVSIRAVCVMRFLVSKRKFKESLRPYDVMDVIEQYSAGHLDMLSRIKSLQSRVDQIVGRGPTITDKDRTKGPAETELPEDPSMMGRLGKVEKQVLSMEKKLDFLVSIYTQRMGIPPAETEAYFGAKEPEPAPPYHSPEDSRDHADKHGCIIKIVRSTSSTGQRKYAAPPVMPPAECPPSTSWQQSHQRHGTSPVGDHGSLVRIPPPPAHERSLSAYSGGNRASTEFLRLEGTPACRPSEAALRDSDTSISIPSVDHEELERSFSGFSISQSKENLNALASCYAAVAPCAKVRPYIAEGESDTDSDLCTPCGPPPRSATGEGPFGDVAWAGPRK
# KCNQ2 enhance baseline: second read-out of KCNQ2 enhance, no call of its own (marks repeat the call); B-score; compound at 10 µM; measured here: initial fluorescence intensity artifact check;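 brightness before thallium and not channel activity; 0 = typical well and far values either way flag optical interference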
# Numbers without * were called inactive; · = no result given.
KCNQ2 enhance	KCNQ2 enhance baseline	mol
0.14	-0.31	O=C(COc1cccc2c1CCNC2=O)Nc1ccc(Cl)cc1
1.5	-2.3	O=C(O)/C=C/c1ccc(-n2ccnc2)cc1
0.63	0.17	COc1ccc(S(=O)(=O)NC2CC2)cc1-n1cnnn1
3.4	-1.7	Cc1nc2ccccc2c(=O)n1NC(=O)c1c(F)cccc1F
1.5	-1.1	COc1ccc(C(=O)Nc2ccc3nc(N4CCN(C)CC4)cc(C)c3c2)c(OC)c1
0.64	1.8	Cc1ccccc1-c1oc(C)c(C)[n+]1[O-]
0.45	0.39	CCCCNC(=O)COC(=O)c1ccc(F)cc1Cl
0.34	-2	COc1ccc(N2C(=O)C(Cl)=C(N(CCO)Cc3ccccc3)C2=O)cc1
0.08	0.23	O=C(CC1OC(=O)c2ccccc21)Nc1ccc(Cl)c(S(=O)(=O)N2CCCCC2)c1 (stereo not given)
2.3	-2	C=CCn1c(SCC(=O)Nc2cccc(S(=O)(=O)N(C)c3ccccc3)c2)nnc1C1CC1
0.5	-1.9	COc1ccc(C(=O)N/N=C/c2c(C)nn(-c3ccccc3)c2OC)cc1
0.11	-1.4	COc1ccccc1CNC(=O)c1cccnc1
0.37	0.01	O=C(CN1CCN(c2ccccc2)CC1)Nc1c(C(=O)C2CC2)oc2ccccc12
0.48	0.6	CCCn1c2ccccc2c2nnc(SC(CC)C(=O)Nc3cc(C)on3)nc21 (stereo not given)
0.01	0.31	Cc1ccc(C)c(S(=O)(=O)N2CC(=O)Nc3ccccc32)c1
0.68	0	Cc1nn(Cc2ccc(Cl)cc2)c(C)c1NC(=O)CCCn1nc(C)c([N+](=O)[O-])c1C
0.81	-0.48	O=C(O)C1C2C=CC(O2)C1C(=O)Nc1ccc2c(c1)OCCO2 (stereo not given)
0.95	-1.1	CC(=O)NC(Cc1cc(C)ccc1C)C(=O)N1CCN(C(=O)c2ccccc2Br)CC1 (stereo not given)
-5.6	·	Cc1onc(-c2ccc(Cl)cc2)c1-c1ccnc(SCC(=O)Nc2ccc(C(C)C)cc2)n1
0.59	-1.6	CC(C)C(=O)N(Nc1nc2ccccc2s1)C(=O)C(C)C
0.31	-1.8	COc1ccc(NC(=O)c2cc(S(=O)(=O)N3CCCC3)cn2C)cc1Cl
0.02	1	CCN(CC)CC(C)(C)COC(=O)c1oc2ccccc2c1C
0.52	-0.98	CCCOc1ccc(Cl)cc1/C=C1/C(=O)ON=C1C
0.64	-0.67	COc1cccc(C(=O)N(Cc2ccccc2)Cc2cc3cc4c(cc3[nH]c2=O)OCCO4)c1
1.5	0.86	CC1(C)Oc2cc(N)c([N+](=O)[O-])cc2O1
1.7	-0.68	CC(C)S(=O)(=O)c1ccc(C(=O)Nc2ccc(F)cc2F)cn1
1.4	-0.88	O=S(=O)(Nc1n[nH]c(C(F)(F)F)n1)c1ccccc1
0.03	-0.33	O=C(N/N=C1/CCSC1)c1cc(Br)ccc1O
0.26	-3.3	Fc1ccccc1C1c2[nH]c3ccccc3c2CCN1Cc1cccn1-c1ncccn1 (stereo not given)
0.85	0.75	COc1ccc(/C=C(\NC(=O)c2ccco2)C(=O)N2CCOCC2)cc1
1.5	-0.24	CCN(CC)S(=O)(=O)c1ccc(N/N=C(\C)c2cccnc2)nc1
0.96	0.38	Nc1nc2ccc(C(=O)NC3CCCCC3)cc2s1
0.32	-1.4	COc1ccc(S(=O)(=O)N2CCCOC2CNC(=O)C(=O)NCc2ccccc2F)cc1C (stereo not given)
0.48	-1.6	COc1ccc(CNC(=O)OCCN2CCN(S(=O)(=O)c3ccc(C)cc3)CCC2=O)cc1
14*	-1.6*	c1ccc(-c2n[nH]c(-c3ccccn3)n2)cc1
0.04	2.8	Cc1cc(C)c(NC(=O)CN2C(=O)NC(CCc3ccccc3)C2=O)c(C)c1 (stereo not given)
1.7	-0.11	CCOC(=O)C1=C(CN2CCCCCC2)NC(=O)NC1c1ccc2c(c1)OCO2 (stereo not given)
0.48	-2.8	CC(=O)Oc1ccc2ccc(=O)oc2c1
0.36	0.52	CC(C)(C)c1ccc(C(=O)Nc2ccc(NC(=O)c3ccco3)cc2)cc1
0.54	0.86	Cc1nc(C)c(C(=O)NNS(=O)(=O)c2ccc([N+](=O)[O-])cc2)s1
0.01	0.57	O=C(N/N=C/C(Br)=C/c1ccccc1)c1cccs1
0.55	0.08	O=C1C(=O)N(CCc2c[nH]c3ccccc23)C(c2cccnc2)/C1=C(/O)c1ccccc1 (stereo not given)
0.89	-2.6	O=C(N/N=C/c1ccccc1[N+](=O)[O-])c1ccncc1
0.15	1.8	CCN(CC)CCNC(=O)c1cn(CC)c2cc(N3CCN(C)CC3)c(F)cc2c1=O
0.97	-0.33	CN(C)C(=S)SCCn1c(N)nc(N(C)C)nc1=O
0.86	0.91	Cc1ccc(-c2nnn(CC(=O)N(CCO)C(C(=O)NC(C)(C)C)c3ccncc3)n2)cc1 (stereo not given)
0.7	-1.1	CCOC(=O)c1c(N/N=C/c2ccncc2)n[nH]c1C
0.28	0	Cc1ccc(S(=O)(=O)N(C)C)cc1NC(=O)COC(=O)CCC1CCCCC1

# 3 entries from above, tab-delimited.
compound	KCNQ2 enhance	KCNQ2 enhance baseline
O=C(COc1cccc2c1CCNC2=O)Nc1ccc(Cl)cc1	0.14	-0.31
Cc1nn(Cc2ccc(Cl)cc2)c(C)c1NC(=O)CCCn1nc(C)c([N+](=O)[O-])c1C	0.68	0
CCN(CC)CC(C)(C)COC(=O)c1oc2ccccc2c1C	0.02	1

# (listing goes on)
KCNQ2 enhance	KCNQ2 enhance baseline	mol
0.11	-0.68	COC(=O)c1ccc(C2NC(=S)N(c3ccccc3)C(C)=C2C(=O)Nc2ccccc2OC)cc1 (stereo not given)
1.3	0.36	O=S(=O)(NCCN1CCOCC1)c1ccc(Cl)s1
0.67	0.51	N#CCSc1nnc2ccc3ccccc3n12
1.2	0.07	COc1ccc(N2C(=O)CC(c3ccc([N+](=O)[O-])cc3)C2=O)cc1 (stereo not given)
0.27	0.47	Cc1nn(-c2ccccc2)c(Cl)c1C(=O)NCCCCNC(=O)c1c(C)nn(-c2ccccc2)c1Cl
0.05	-0.5	COc1ccc(C(=O)Oc2ccc(=O)n(-c3ccccc3)n2)cc1
4.9	0.45	O=C(Nc1nnc(C2=COCCO2)o1)c1ccc(Cl)cc1
0.69	-0.18	Cc1c(NC(=O)CN2CCC(C(N)=O)CC2)cccc1[N+](=O)[O-]
0.02	-0.1	O=C(Nc1ccc(S(=O)(=O)Nc2cnc3ccccc3n2)cc1)c1ccc(F)cc1
0.43	0.11	CC(C)CC(=O)Nc1ccc2c(c1)nc(CCN1CCOCC1)n2C
0.9	0.41	COc1cc(/C=N/S(=O)(=O)c2ccccc2)cc(OC)c1O
0.9	-0.66	CCOC(=O)c1cccc(N2C(=O)C3C4C=CC(CC4)C3C2=O)c1 (stereo not given)
0.62	0.77	Cc1ccnc(NC(=O)CCC(=O)N(CC(=O)NC2CCCCC2)C2CCCC2)c1
0.01	0.33	Cc1ccc2[nH]c(CNC(=O)c3ccc(F)cc3)cc2c1
0.29	0.54	CCOc1ccc(N2C(=O)CC(NCCNc3ccc([N+](=O)[O-])cn3)C2=O)cc1 (stereo not given)
0.03	-0.16	COc1ccc(/C=C2/SC(=S)N(CCCC(=O)Nc3cccc(O)c3)C2=O)cc1
1.2	-1.6	Cc1cc2cc(CN(Cc3cccs3)C(=S)NCC3CCCO3)c(=O)[nH]c2cc1C (stereo not given)
0.02	0.18	OC1(C(F)(F)F)CC(c2ccc3ccccc3c2)=NO1 (stereo not given)
1.1	0.3	C#CCOCCOCCOCCNc1nc(N2CCN(C(=O)[C@H]([C@@H](C)CC)n3cc([C@@H](N)CC(C)C)nn3)CC2)nc(N2CCN(C(=O)[C@H](Cc3cc4ccccc4[nH]3)n3cc([C@@H](N)Cc4ccc(O)cc4)nn3)CC2)n1
0.63	-0.02	Cc1cc(NC(=O)CSc2cn(C)c3ccccc23)no1
1.6	-1.8	C=CCNC(=O)C1CC(=O)N(c2ccc(OCc3ccc(F)cc3)cc2)C1 (stereo not given)
0.62	-0.39	Cc1ccn(C(CC(=O)c2ccc(Br)cc2)C(=O)O)n1 (stereo not given)
0.1	-0.39	COc1ccc(NC(=S)Nc2ccc3nsnc3c2)cc1
0.37	1.7	Cc1ccc(NC(=S)Nc2cccc(S(=O)(=O)Nc3c(C)n(C)n(-c4ccccc4)c3=O)c2)cc1
0.13	1.4	Cc1ccc(S(=O)(=O)Nc2ccc3c4c(cccc24)CC3)c(C)c1
0.1	0.43	CCCNC(=O)c1onc(CSc2ccccc2)c1C(=O)NCCC
1.4	1.6	O=C(Nc1ccc2c(c1)nc1n2CCCCC1)c1cc(S(=O)(=O)N2CCOCC2)ccc1Cl
0.1	-0.2	CCOC(=O)c1ccc(NC(=O)c2ccnn2C)cc1
0.01	1.8	Cc1ccc(-c2nc(CN3CCN(C(=O)C4CCCO4)CC3)cs2)cc1 (stereo not given)
0.33	0.35	Cc1[nH]n(-c2ccc(Cl)cc2)c(=O)c1C=NC12CN3CN(CN(C3)C1)C2
0.14	0.55	CCOC(=O)C1CCN(C(=O)Cn2cnc3sc(C)c(S(=O)(=O)N4CCCCC4)c3c2=O)CC1
0.5	-0.27	CCOc1cc(/C=C/c2cc(C(=O)O)c3ccccc3n2)ccc1OC
0.47	0.64	O=C(CSC(=S)N1CCCC1)NCCc1ccccc1
0.13	2	Cn1c(-c2cccc([N+](=O)[O-])c2)[n+](C)c2ccccc21
1.4	-1.4	CCOc1ccc(C2NC(=O)c3ccccc3O2)cc1OC (stereo not given)
0.58	0.08	COc1cc(S(=O)(=O)NCc2cccnc2)ccc1F
0.05	0.2	O=C(CCn1c(=O)oc2ccccc21)Nc1ccon1
0.07	0.39	O=C(O)C1C2C=CC(C2)C1C(=O)NCCCN1CCCC1=O (stereo not given)
0.9	-0.2	CCOc1cccc(Nc2cc3n(c(=O)n2)CCc2cc(OC)c(OC)cc2-3)c1
2.2	-0.57	CCCS(=O)(=O)N1CCC(C(=O)NCCCOC(C)C)CC1
4.2	-0.14	C=C1CCN([C@@H](C)C(=O)NCc2cc(OC)c(OC)c(OC)c2)S(=O)(=O)c2ccccc21
0.76	0.02	Cc1sc2ncnc(N(C)Cc3cccs3)c2c1C
0.27	1.9	COc1ccccc1CNS(=O)(=O)c1cccc2nsnc12
2.8	0.04	COC(=O)c1nc(Cl)c(Cl)c(N)c1Cl
0.19	1.6	C=CCn1c(O)c(C(CC)=Nc2ccccc2NC(=O)CC)c(=O)[nH]c1=O
0.99	-1.4	CCSc1ccccc1C(=O)NCCc1ccccc1
0.89	-1.4	Cc1ccc(C(=O)N[C@@H](Cc2ccccc2)C(=O)N2CCC3(CC2)NCCc2[nH]cnc23)cc1C
0.09	-0.37	COc1ccc(C(=O)CC(=O)c2ccc(OC)cc2)cc1

# Individual results from above:
# C=C1CCN([C@@H](C)C(=O)NCc2cc(OC)c(OC)c(OC)c2)S(=O)(=O)c2ccccc21 in KCNQ2 enhance baseline reads -0.14
# Cc1sc2ncnc(N(C)Cc3cccs3)c2c1C in KCNQ2 enhance baseline reads 0.02
# Cc1ccc(C(=O)N[C@@H](Cc2ccccc2)C(=O)N2CCC3(CC2)NCCc2[nH]cnc23)cc1C in KCNQ2 enhance reads 0.89
# CCCS(=O)(=O)N1CCC(C(=O)NCCCOC(C)C)CC1 in KCNQ2 enhance reads 2.2
# COc1ccccc1CNS(=O)(=O)c1cccc2nsnc12 in KCNQ2 enhance baseline reads 1.9
# O=C(O)C1C2C=CC(C2)C1C(=O)NCCCN1CCCC1=O (stereo not given) in KCNQ2 enhance reads 0.07

# (continued)
KCNQ2 enhance	KCNQ2 enhance baseline	mol
1.7	0.09	CCN(CC)CCN(C(=O)c1cc2c(ccc3ccccc32)oc1=O)c1nc2cc3c(cc2s1)OCCO3
0.47	-0.2	O=C(Nc1cccc2ncccc12)c1ccc(-c2ccc(Cl)cc2Cl)o1
0.55	1.3	Cc1ccccc1N(C(=O)Cc1cccs1)C(C(=O)NC1CCCCC1)c1cn(C)nc1C (stereo not given)
2.9	0.53	COc1ccc(Cl)cc1NC(=S)NNC(=O)c1cccs1
0.18	-0.06	O=C(NCCCNC(=O)c1ccco1)c1cccc(F)c1
0.78	1.6	CCOC(=O)c1cnc2ccc(C(=O)OC)cc2c1NCCN1CCOCC1
0.45	-0.42	CC(C)n1c(N2CCN(C(=O)Nc3ccc(F)cc3F)CC2)nc2ccccc21
0.75	-0.57	Cc1sc2nc(C(C)(C)C)oc(=O)c2c1C
0.12	1	O=C(N/N=C/c1ccoc1)c1ccccc1F
1.3	-1.3	CCOC(=O)C(NC(=O)NCc1ccccc1)(OCC)C(F)(F)F (stereo not given)
0.58	0.28	CCOc1ccc(Nc2cc(Nc3ccccc3OCC)nc(C=C(C#N)C#N)n2)cc1
1.2	-0.63	COc1ccccc1CNS(=O)(=O)CC12CCC(CC1=O)C2(C)C (stereo not given)

# Brought forward from above: 4 entries, then new ones.
KCNQ2 enhance	KCNQ2 enhance baseline	mol
0.12	1	O=C(N/N=C/c1ccoc1)c1ccccc1F
1.3	-1.3	CCOC(=O)C(NC(=O)NCc1ccccc1)(OCC)C(F)(F)F (stereo not given)
0.58	0.28	CCOc1ccc(Nc2cc(Nc3ccccc3OCC)nc(C=C(C#N)C#N)n2)cc1
1.2	-0.63	COc1ccccc1CNS(=O)(=O)CC12CCC(CC1=O)C2(C)C (stereo not given)
3.1	0.22	O=C(NCCS(=O)c1ccc(Cl)cc1)c1cccc(Cl)c1 (stereo not given)
1	-1.1	O=C(Nc1ccccn1)C1COc2ccccc2O1 (stereo not given)
0.23	1.5	O=C(Nc1ccc(CSc2ccccc2)cc1)c1ccccc1
0.74	0.09	Clc1ccc(CSc2nnc(-c3ccncc3)s2)cc1
0.58	1.9	O=C(CSc1nnc(-c2ccccc2)n1C1CCCCC1)N1CCCC1
0.03	1.9	NC(=O)c1cc[n+](CC2=C(C(=O)O)N3C(=O)[C@@H](NC(=O)C(c4ccccc4)S(=O)(=O)[O-])[C@H]3SC2)cc1 (stereo not given in full)
1.5	-0.97	CC1=C(N2CCOCC2)CCC1=O
0.79	0.46	CCN(CC(=O)Nc1ccccc1C(F)(F)F)C(=O)CCOc1ccccc1C

# A portion of the library, so the mix of outcomes need not match the whole.
